High-throughput results from PubChem BioAssay.
Rango release inh: qHTS Assay for Inhibitors of RanGTP induced Rango (Ran-regulated importin-beta cargo) - Importin beta complex dissociation. Snurportin-1 (Homo sapiens) + GTP-binding nuclear protein Ran (Homo sapiens) + Importin …. Biochemical FRET Rango-importin beta, RanGTP-induced dissociation. Potency, µM (doses to about 46.1 µM), for inactives: at the top dose activity change, negative = inhibition. 340,000 compounds, 0.071% hits. AID 540253, 2011; active means falling FRET ratio curve, often poorly fitted, with flat reads before Ran was added; inconclusive means other falling curves, or compound fluorescence or quenching; inactive means flat or rising ratio curve;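 note: potency is the fitted concentration of half-maximal effect; % of control where 0% means no effect; nearly all actives have a fitted effect of over 45% in size; -100% = wells without RanGTP and RCC1; the record marks most hits as doubtful in a second field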
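FRET read at 45 min, room temperature: inhibitors block the CFP/YFP signal rise when RanGTP (0.6 uM Ran, 2 mM GTP, 0.2 uM RCC1) frees Rango (0.1 uM) from importin beta (0.25 uM). Pre-read after 5 min compound exposure flags interference.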
GLA inh pH 4.5: qHTS Assay for Inhibitors of Human alpha-Galactosidase at pH 4.5; Alpha-galactosidase A (Homo sapiens), P06280; purified enzyme, 4-MU-alpha-Gal fluorescence, pH 4.5; activity change, negative = inhibition, % at 105 µM; 230,000 tested, under 10 active; inconclusive = small, poorly fitted or top-dose-only inhibition, or a rising curve; inactive = flat fitted curve, though single readings scatter; no compound was filed as active;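 note: 0% = full activity with enzyme and -100% = basal without enzyme; dose as in the result columns while the protocol names 77 µM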
Target sequence (P06280 whole entry, looked up): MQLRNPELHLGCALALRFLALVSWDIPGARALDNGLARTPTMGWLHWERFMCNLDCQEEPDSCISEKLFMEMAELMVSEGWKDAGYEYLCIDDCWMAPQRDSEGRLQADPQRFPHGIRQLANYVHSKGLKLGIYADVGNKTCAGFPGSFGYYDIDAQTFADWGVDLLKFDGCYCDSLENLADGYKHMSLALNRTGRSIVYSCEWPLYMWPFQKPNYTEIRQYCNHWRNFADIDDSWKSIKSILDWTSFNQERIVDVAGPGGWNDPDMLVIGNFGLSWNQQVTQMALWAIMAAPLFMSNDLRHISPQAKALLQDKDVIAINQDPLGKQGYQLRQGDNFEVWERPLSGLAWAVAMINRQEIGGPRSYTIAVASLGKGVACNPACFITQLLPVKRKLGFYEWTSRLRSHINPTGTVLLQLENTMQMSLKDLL
miR-21 reporter: qHTS Assay for Modulators of miRNAs and/orActivators of miR-21; HeLa miR-21 FLuc reporter, luciferase, 48 h; Potency, µM (titrated, usually from 38.3 µM), for inactives: top-dose reporter change, positive = more light; 340,000 tested, under 10 active; active = well fitted rising curve with a large enough effect; inconclusive = small, poorly fitted or top-dose-only effect; inactive = no such curve, though single readings can be large or run the other way;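 note: % of control where 0% means no effect; miR-21 action dims this reporter so a rising signal means less miR-21 action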
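HeLa cells endogenously expressing miR-21, stably carrying CMV-driven firefly luciferase with a downstream miR-21 binding site, 2000 cells/well. Titrations up to approximately 40 uM, 48 hours; luciferase luminescence read.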
Rango-impB inh: qHTS Assay for Inhibitors of Rango (Ran-regulated importin-beta cargo) - Importin beta complex formation; AID 540263, 2011; Potency, µM (doses to about 92.2 µM), for inactives: top-dose inhibition of complex formation; Rango CFP/YFP FRET sensor + importin beta, 45 min; Importin subunit beta-1 (Homo sapiens), Q14974; 340,000 compounds, 0.031% hits; active = rising FRET ratio curve, often small or poorly fitted; inconclusive = mostly compound fluorescence or quenching in the first reads; inactive = flat curves in all reads;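 note: potency is the fitted concentration of half-maximal effect; 0% = DMSO wells and 100% = buffer wells lacking importin beta; nearly all actives have a fitted effect of over 15% in size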
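FRET biosensor (snurportin 1 IBB flanked by EYFP and cerulean), 50 nM, with compound 5 min, then 0.125 microM importin beta in PBS, 1 mM DTT, 0.02% Tween-20, 0.1% BSA. CFP/YFP ratio read after 45 min at room temperature; pre-read flags interference.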
* hit, by the source's call; ? = inconclusive; / = not tested or not shown. This is a subset (hit frequency here may not be typical).

SMILES	Rango release inh	GLA inh pH 4.5	miR-21 reporter	Rango-impB inh
CC(C)NC(=O)[C@]1(C)CCC[C@@]2(C)C3CC[C@@]4(C)C[C@]3(CCC21)CC4=O (some centres undefined)	-10%	/	/	1.4%
CSc1nc(O)c(C(c2ccc(OC(C)C)cc2)c2c(O)nc(SC)[nH]c2=O)c(=O)[nH]1	6%	/	/	0.5%
Cc1cc(C)cc(N(CC(=O)NC2CC3CCC2C3)S(C)(=O)=O)c1 (centres undefined)	7%	1	-2%	0.4%
CCC(Sc1nc(N)cc(=O)[nH]1)C(=O)NC(C(=O)OC)c1ccccc1 (centres undefined)	14%	-2	-9%	3.2%
CCn1nc(NS(=O)(=O)c2ccccc2[N+](=O)[O-])c2cc3cccc(C)c3nc21	13%	/	-3%	1.5%
C=CCN(CC=C)C(=O)c1ccc(OC2CCN(C(C)=O)CC2)c(OC)c1	1%	/	-5%	0.0%
O=C(CN1C(=O)NC2(CCOc3ccccc32)C1=O)Nc1ccc(F)c(F)c1F (centres undefined)	-19%	8	-1%	0.6%
COc1ccc2[nH]cc(CCNC(=O)CS(=O)(=O)Cc3ccccc3)c2c1	0%	/	1%	3.0%
CC(=O)Nc1ccc(S(=O)(=O)NC(C)C(=O)NCCc2ccc(F)cc2)cc1 (centres undefined)	-7%	-2	-3%	0.4%
Cc1ccc(CCNC(=O)c2cc(-c3ccncc3)nc3ccccc23)cc1	2%	-4	16%	1.5%

As entered above:
Rango-impB inh with Cc1cc(C)cc(N(CC(=O)NC2CC3CCC2C3)S(C)(=O)=O)c1 (centres undefined) : 0.4%
miR-21 reporter with CCC(Sc1nc(N)cc(=O)[nH]1)C(=O)NC(C(=O)OC)c1ccccc1 (centres undefined) : -9%
Rango-impB inh with COc1ccc2[nH]cc(CCNC(=O)CS(=O)(=O)Cc3ccccc3)c2c1 : 3.0%
Rango release inh with CC(C)NC(=O)[C@]1(C)CCC[C@@]2(C)C3CC[C@@]4(C)C[C@]3(CCC21)CC4=O (some centres undefined) : -10%
Rango-impB inh with Cc1ccc(CCNC(=O)c2cc(-c3ccncc3)nc3ccccc23)cc1 : 1.5%
Rango-impB inh with CSc1nc(O)c(C(c2ccc(OC(C)C)cc2)c2c(O)nc(SC)[nH]c2=O)c(=O)[nH]1 : 0.5%

Further structures:
SMILES	Rango release inh	GLA inh pH 4.5	miR-21 reporter	Rango-impB inh
COc1ccc(NC(=O)CSCC(=O)NC2(C)CCS(=O)(=O)C2)cc1 (centres undefined)	8%	/	-3%	-1.9%
Cc1cccn2cc(-c3ccc(F)cc3)cc12	-25%	0	-11%	?
O=C(CCSc1nnc(-c2ccco2)o1)Nc1ccccc1	14%	1	-6%	0.4%
CCCN(CC(=O)Nc1ccc(Cl)cc1Cl)Cc1cc(=O)n2ccsc2n1	-5%	1	0%	-0.3%
Cc1ccc([C@@H]2CC=C(C(=O)O)[C@H](c3ccccc3F)N2S(=O)(=O)c2ccccc2C)cc1	3%	/	/	-1.9%
CC(C)(C)c1ccc(CCC2OCC(CN3CCOCC3)O2)cc1 (centres undefined)	-14%	2	-2%	-1.1%
COc1ccc(S(=O)(=O)c2c(O)c3ccc(C(=O)Nc4ccccc4Cl)cc3[nH]c2=O)cc1	-11%	/	0%	-1.2%
CSCCC(NS(=O)(=O)c1ccccc1F)C(=O)NCc1cccs1 (centres undefined)	20%	/	/	6.3%
CCc1cccc(CC)c1NC(=O)C1CC(=O)N(c2ccc3c(c2)OCCO3)C1 (centres undefined)	-1%	6	1%	1.7%
COc1ccc(NC(=O)CSc2ncccn2)cc1S(=O)(=O)N1CCCCC1	1%	/	/	-1.2%

Entries shown so far that contain a Cl atom (2):
SMILES	Rango release inh	GLA inh pH 4.5	miR-21 reporter	Rango-impB inh
CCCN(CC(=O)Nc1ccc(Cl)cc1Cl)Cc1cc(=O)n2ccsc2n1	-5%	1	0%	-0.3%
COc1ccc(S(=O)(=O)c2c(O)c3ccc(C(=O)Nc4ccccc4Cl)cc3[nH]c2=O)cc1	-11%	/	0%	-1.2%

Other entries.
SMILES	Rango release inh	GLA inh pH 4.5	miR-21 reporter	Rango-impB inh
CCN(Cc1ccccc1)C(c1cc2ccc(C)cc2[nH]c1=O)c1nnnn1CCOC (centres undefined)	-15%	1	-1%	1.7%
Cc1ccc(OCc2nc(C#N)c(N3CCN(Cc4ccccc4)CC3)o2)cc1	1%	-3	0%	0.8%
COC(=O)c1cc(NCc2ccc3c(c2)OCO3)ccc1N1CCOCC1	?	-2	-2%	?
O=C1CN(C(=O)COC(=O)c2ccc[n+]([O-])c2)c2ccccc2N1	-3%	-6	1%	-3.0%
COc1ccccc1N1CCN(C(=O)c2ccccc2N(C)S(=O)(=O)c2ccc(C)cc2)CC1	21%	/	11%	-0.5%
O=C(CN1CCN(Cc2cccc(Cl)c2)C1=O)NCC1CCCO1 (centres undefined)	20%	6	1%	3.1%
CCCCN(C(=O)Cc1ccc(S(=O)(=O)N2CCOCC2)s1)c1c(N)n(CCCC)c(=O)[nH]c1=O	-4%	/	/	-0.1%
CNC(=S)N(CCc1c(C)[nH]c2ccc(Cl)cc12)Cc1cccs1	/	2	26%	/
Cc1c(C(=O)NCc2ccccn2)oc2ccc(Br)cc12	1%	/	/	-0.5%
CCc1ccc(/C=N\n2cnnc2)cc1	-15%	2	-14%	-0.8%
CCOCCCNS(=O)(=O)c1ccc(-n2cnnn2)c(OC)c1	-10%	-1	-22%	4.0%
Cc1ccc2[nH]c(-c3cccc(N)c3)cc2c1	18%	-3	-46%	-3.2%
Fc1ccccc1NC(=S)NCCc1ccccc1	4%	2	-32%	-3.4%
Cc1ccc2oc(C(=O)N3CCN(c4cccc(C)n4)CC3)c(C)c2c1	-1%	/	-25%	2.8%
Cc1ccc(NC(=O)C2OCCc3ccccc32)cc1Cl (centres undefined)	20%	-3	-43%	-2.7%
Cc1c(NC(=S)SCc2ccccc2)c(=O)n(-c2ccccc2)n1C	3%	1	-7%	1.7%
COc1cccc(CN(C)Cc2nc(C3CC3)no2)c1	3%	3	-5%	-2.7%
Cc1sc2nc(C(C)Sc3n[nH]c(N)n3)[nH]c(=O)c2c1C (centres undefined)	/	-14	-7%	/
CCn1c(SCC(=O)NC2CCCC2)nnc1-c1cccnc1	10%	/	2%	3.2%
Cc1noc(C)c1NC(=O)N(C)C[C@H]1Oc2ccc(NS(=O)(=O)c3c(C)noc3C)cc2C(=O)N([C@H](C)CO)C[C@@H]1C	15%	/	/	2.9%
COc1ccc(-c2cnn3c4c(c(C)nc23)CCN4C(C)C)cc1OC	7%	-1	-31%	-3.2%
Cc1ccccc1NC(=O)c1ccccc1NS(=O)(=O)c1cccc2cccnc12	3%	-12	-5%	0.1%
CC1CN(C(=O)CCC(=O)NCc2ccc(Cl)cc2)c2ccccc2S1 (centres undefined)	8%	/	2%	4.0%
CC1CCCC(C)N1C(=O)COC(=O)c1cccnc1Cl (centres undefined)	-1%	/	/	-1.9%
Cc1ccc([C@@H]2CC=C(C(=O)O)CN2S(=O)(=O)c2ccccc2C)cc1	22%	/	/	-1.1%
CN(CC(=O)NCc1ccccn1)S(=O)(=O)c1ccc(Br)cc1	1%	6	3%	0.2%
Cc1ccc(NC(=O)CN(C)C(=O)C(Sc2ccccc2)c2ccccc2)cc1 (centres undefined)	-11%	/	/	0.2%
O=C(C(=O)c1ccc(O)c(O)c1)c1ccc(O)c(O)c1	-5%	/	/	0.8%
COc1ccc(CC(=O)NCc2nnc(SCc3ccc([N+](=O)[O-])cc3)n2C)cc1	-12%	3	0%	0.2%
O=C1CC(Nc2ccc(N3CCOCC3)cc2)C(=O)N1C1CCCCC1 (centres undefined)	4%	1	-6%	0.3%
O=C(NCCc1ccccc1)C1CCC(CNc2c(N3CCCCC3)c(=O)c2=O)CC1 (centres undefined)	-15%	5	-13%	-12%
COc1ccc(C(=O)C2CCCN(Cc3ccc4nonc4c3)C2)cc1F (centres undefined)	11%	-5	1%	-4.2%
CCn1c(SCC(=O)N2CCC(C(N)=O)(N3CCCCC3)CC2)nnc1-c1ccccc1	26%	-6	1%	-1.2%
Cc1cccc(CN2CCOCCS2(=O)=O)c1	-13%	/	-3%	1.3%
CCc1ccc(N2CC(C(=O)N3CCCC3)CC2=O)cc1 (centres undefined)	11%	/	-5%	4.8%
NC1=NC(=O)C2(COC(c3cccnc3)OC2)S1 (centres undefined)	-3%	2	2%	-0.3%
COc1ccc(Cn2c(C3CC3)nc3ccc(NC(=O)C4CC4)cc3c2=O)cc1	11%	-11	-72%	-1.8%
CCc1nn(CC(=O)N(C)C2CCCCC2)c(=O)c2cc3cc(C)ccc3n12	-1%	/	-1%	2.3%
NS(=O)(=O)c1cccc(NC(=O)COC(=O)C2(c3cccc(F)c3)CCCC2)c1	11%	1	-4%	1.3%
CN1CCN(c2nc(NCCOC34CC5CC(CC(C5)C3)C4)nc(OCC(F)(F)F)n2)CC1	-20%	-5	1%	0.2%
Cc1ccc(SCC(=O)N2CCC(C(N)=O)CC2)cc1	-17%	13	-19%	-5.6%
O=C(/C=C/c1ccco1)Nc1ccc(-c2nc3ccccc3[nH]2)cc1	-1%	-9	-39%	2.9%
COc1ccccc1-n1c(=O)[nH]c2c(C(N)=O)nc(C3CCCCC3)nc21	12%	0	-23%	1.0%
C/C(=N\Nc1ccc(C(F)(F)F)cc1[N+](=O)[O-])C(C)C	25%	3	4%	1.3%
CCCCC(=O)Nc1ccc(NC(=O)c2cc(OC)c(OC)c(OC)c2)cn1	-11%	-11	-2%	-1.3%
CCOc1ccc(-n2c(=O)[nH]cc(C(=O)N3CCCc4ccccc43)c2=O)cc1	6%	2	1%	-2.0%
COc1cc(NC(=O)CCNC(=O)Cn2cnc3sc4c(c3c2=O)CCCC4)cc(OC)c1OC	14%	/	-4%	2.5%
c1ccc(-n2nnnc2SCc2cccc3nsnc23)cc1	13%	-2	-12%	3.9%
COc1ccc(OC)c(Nc2nc(-c3ccccc3O)nc3ccccc23)c1	0%	1	-1%	12%
Cc1ccccc1N(C(=O)CCC(=O)Nc1ccccn1)C(C(=O)NC(C)C)c1ccc(O)cc1 (centres undefined)	6%	-14	1%	2.8%
Next section:
SMILES	Rango release inh	GLA inh pH 4.5	miR-21 reporter	Rango-impB inh
O=C(c1ccc(Cl)cc1)N(Cc1ccc(Br)cc1)N1C(=O)CCC1=O	-4%	1	0%	0.0%
CCN(CC(=O)Nc1ccc2c(c1)OCCO2)C(=O)c1cccc(OCC(C)C)c1	2%	/	-9%	0.0%
Cc1cc(C(=O)COc2cccnc2[N+](=O)[O-])c(C)n1-c1ccccc1	12%	0	-16%	-3.8%
CCOC(=O)c1[nH]c(C)c(C(=O)OCC(=O)NC(C)c2ccc(F)cc2)c1C (centres undefined)	6%	/	/	-8.0%
COc1ccc(N2CCC(CNC(=O)Nc3ccc(C)c(C)c3)C2)cc1 (centres undefined)	-5%	5	-16%	-3.6%
CCCCSc1nc2c(=O)[nH][nH]c(=O)c2n1Cc1ccccc1	-6%	1	-4%	8.1%
CCOC(=O)N1CCN(S(=O)(=O)c2ccc(C)cc2)C1c1ccc(OC)cc1 (centres undefined)	-18%	-1	9%	2.2%
COc1cc(OC)c(C2C(C(=O)O)c3ccccc3C(=O)N2C)cc1OC (centres undefined)	-14%	3	-7%	-0.9%
O=C(Nc1ccc(Cl)cc1)c1nc[nH]c1C(=O)NCc1ccccc1	-2%	/	/	1.5%
Cc1cccc(CSc2ncnc3ccccc23)c1	-10%	-9	-13%	1.9%
O=C(CCCN1C(=O)c2ccccc2C1=O)NC1=NCCS1	-8%	-11	-2%	-2.4%
COCC(=O)OCC(=O)Nc1ccccc1-c1ccccc1	-1%	7	4%	0.1%
O=C(COC(=O)CCS(=O)(=O)c1ccc(F)cc1)NC1CCCCC1	1%	/	/	-2.8%
COc1ccc(CNC(=O)CNC(=O)c2cccs2)c(OC)c1	-1%	/	-1%	-0.5%
